Screening results (PubChem)
Vaccinia inh: Vaccinia orthopox stage-specific inhibition | Vaccinia-infected cells, mCherry/Venus stage reporter fluorescence; hits give low values; some inactives read as strong as hits | activity change (mCherry), % (no concentration beside the values) | hit rate 0.01% among 89,000;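 active = mCherry past -33% and 40 or more points under the early reporter, replicates agreeing; inconclusive = past -33% without that gap or agreement; tested in A549 cells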;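 note: scaled between vehicle wells and reference inhibitor wells; 23 nL library stock went into each well; one replicate is shown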
Vaccinia inh Venus: second read-out of Vaccinia inh, no call of its own (marks repeat the call); activity change (Venus), %; measured here: Venus reporter, other viral stage;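 negative = less Venus signal; first of two replicates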
* = called active by the depositor; ? = inconclusive; . = not tested or not shown; & = joins results of further samples. Only part of the results is shown; the hit share may differ from the screen's.

SMILES | Vaccinia inh | Vaccinia inh Venus
CO[C@H]1CN(C)C(=O)c2cc(NS(C)(=O)=O)ccc2OC[C@@H](C)N(CC2CCCCC2)C[C@@H]1C | -25 | -15
C/C=C/c1cccc(-c2nc(C(=O)NCc3ccncc3)cc3c2[C@@H](CCO)N([S@](=O)C(C)(C)C)C3)c1 | -19 | -15
CC(=O)NC[C@@H]1[C@@H](c2ccc(-c3cccc(F)c3)cc2)[C@H](CO)N1C(C)=O | 11 | 2
CCCC(=O)Nc1ccc2c(c1)C(=O)N(C)[C@@H]1CC[C@@H](CC(=O)NCCc3ccncc3)O[C@H]1CO2 | 4 | 2
O=C(C[C@@H]1CC[C@H](NC(=O)Nc2ccccc2)[C@H](CO)O1)NCc1ccccn1 | 12 | 14
O=C(Nc1ccc(Cl)cc1)N1C[C@H]2[C@@H](c3ccccc31)[C@H](CO)N2C(=O)c1ccccn1 | -11 | -13
C[C@H](CO)N1C[C@H](C)[C@H](CN(C)C(=O)Nc2ccc(-c3cccs3)cc2)OCc2cn(nn2)CCCC1=O | -7 | 1
COc1ccc(NC(=O)N(C)C[C@H]2Oc3c(NC(=O)Nc4ccc5c(c4)OCO5)cccc3C(=O)N([C@@H](C)CO)C[C@@H]2C)cc1 | 20 | 10
O=C(N[C@@H]1CC[C@H](CCNS(=O)(=O)c2cccc(Cl)c2)O[C@H]1CO)c1ccccc1 | -11 | -7
CO[C@H]1CN(C)C(=O)c2ccc(NC(=O)Nc3ccccc3)cc2OC[C@@H](C)N(C(=O)Nc2c(C)noc2C)C[C@H]1C | 5 | 9
COc1ccc(S(=O)(=O)N(C)C[C@H]2OCCCC[C@@H](C)Oc3ccc(NC(=O)Nc4c(C)noc4C)cc3C(=O)N([C@H](C)CO)C[C@@H]2C)cc1 | 9 | 6
C[C@H]1CCCCO[C@H](CN(C)C(=O)Cc2ccccc2)[C@@H](C)CN([C@@H](C)CO)C(=O)c2cc(NS(=O)(=O)c3ccccc3)ccc2O1 | -32 | -28
CC(=O)N1[C@H](C(=O)N[C@@H](C)c2ccccc2)[C@@H](CO)[C@@H]2Cn3c(cccc3=O)[C@@H]21 | 1 | 2
COc1ccccc1NC(=O)N1C[C@H]2[C@@H](c3ccccc31)[C@@H](CO)N2Cc1ccccc1F | -10 | -12
O=C(c1ccccc1F)N1CC(=O)N2[C@H](CO)[C@@H](c3ccc(-c4ccccc4)cc3)[C@@H]2C1 | -18 | -13
CO[C@@H]1CN(C)C(=O)c2cc(NS(C)(=O)=O)ccc2OC[C@H](C)N(C(=O)C2CCC2)C[C@@H]1C | 23 | 17
CC(=O)N(C)C[C@H]1Oc2cc(-c3ccccc3C)ccc2S(=O)(=O)N([C@@H](C)CO)C[C@@H]1C | 20 | 3
O=C(C[C@H]1CC[C@H]2[C@@H](COC[C@@H](O)CN2S(=O)(=O)c2cccc(F)c2)O1)NC1CCC1 | 13 | 3
CC(C)CC#Cc1cnc2c(c1)C(=O)N([C@@H](C)CO)C[C@@H](C)[C@H](CN(C)S(=O)(=O)c1cccs1)O2 | 0 | 3
COc1ccc(NC(=O)Nc2ccc3c(c2)CC(=O)N([C@@H](C)CO)C[C@@H](C)[C@H](CN(C)CC2CCCCC2)O3)cc1 | ? | .
C[C@H]1CN([C@@H](C)CO)C(=O)c2cc(NS(=O)(=O)c3ccc(Cl)cc3)ccc2O[C@@H]1CN(C)C | 2 | -1
C[C@H]1CCCCO[C@H](CN(C)C(=O)CCC(F)(F)F)[C@@H](C)CN([C@@H](C)CO)C(=O)c2cc(NC(=O)c3ccccc3)ccc2O1 | -21 | -18
O=C(NCC[C@@H]1CC[C@@H](NC(=O)c2cccnc2)[C@H](CO)O1)Nc1ccc(Cl)cc1 | -1 | 2
O=C(C[C@H]1C[C@@H]2c3cc(NC(=O)C4CCC4)ccc3O[C@@H]2[C@@H](CO)O1)NCc1ccccc1F | -7 | -11
CCC(=O)N(C)C[C@H]1Oc2cc(-c3ccc(F)cc3)ccc2S(=O)(=O)N([C@H](C)CO)C[C@H]1C | -4 | -6
C[C@H](CO)N1C[C@H](C)[C@@H](CN(C)Cc2ccc3c(c2)OCO3)Oc2ccc(NC(=O)CCCN(C)C)cc2CC1=O | 0 | -7
CC(C)NC(=O)N[C@H]1C=C[C@@H](CC(=O)N2CCCCC2)O[C@H]1CO | 11 | 16
C[C@@H]1CCCCO[C@@H](CN(C)S(=O)(=O)c2ccc(Cl)cc2)[C@@H](C)CN([C@@H](C)CO)C(=O)c2cc(NC(=O)Nc3ccc(F)cc3)ccc2O1 | ? | .
CCNC(=O)C[C@H]1CC[C@H]2[C@@H](COc3ccc(NC(=O)Nc4ccccc4Cl)cc3C(=O)N2C)O1 | 8 | 6
C[C@@H]1CCCCO[C@H](CN(C)C(=O)Nc2cccc3ccccc23)[C@@H](C)CN([C@H](C)CO)C(=O)c2cc(NC(=O)Nc3cccc4ccccc34)ccc2O1 | 39 | 9
CO[C@@H]1CN(C)C(=O)c2ccc(NS(=O)(=O)c3ccccc3F)cc2OC[C@@H](C)NC[C@@H]1C | 11 | 14
COc1ccc(S(=O)(=O)N(C)C[C@@H]2OCCCC[C@@H](C)Oc3ccc(NC(=O)NC(C)C)cc3C(=O)N([C@@H](C)CO)C[C@H]2C)cc1 | 9 | 5
COc1ccc(S(=O)(=O)N(C)C[C@H]2Oc3ccc(NS(=O)(=O)c4cccs4)cc3C(=O)N([C@H](C)CO)C[C@@H]2C)cc1 | 7 | 9
CO[C@H]1CN(C)C(=O)c2ccc(NC(=O)C3CCOCC3)cc2OC[C@H](C)N(C)C[C@@H]1C | 3 | 3
C[C@H](O)C#Cc1cnc2c(c1)C(=O)N([C@@H](C)CO)C[C@H](C)[C@H](CN(C)C(=O)c1ccccc1F)O2 | 10 | 9
C[C@@H]1CN([C@H](C)CO)S(=O)(=O)c2ccc(-c3ccc(C(=O)N(C)C)cc3)cc2O[C@H]1CN(C)C | 3 | -6
C[C@@H]1CN([C@@H](C)CO)C(=O)c2cc(/C=C/c3ccccc3)cnc2O[C@@H]1CN(C)C(=O)c1cccc(F)c1 | -11 | -11
C[C@@H]1CN([C@H](C)CO)C(=O)CCCn2nncc2CO[C@@H]1CN(C)C(=O)c1ccc(N2CCN(C)CC2)cc1 | 8&11 | 1&10
O=C(C[C@H]1CC[C@@H]2[C@H](COC[C@H](O)CN2S(=O)(=O)c2ccccc2Cl)O1)NCc1ccccc1Cl | 10 | 1
CCCC#Cc1ccc2c(c1)O[C@H](CN(C)S(=O)(=O)c1cccc(F)c1)[C@@H](C)CN([C@@H](C)CO)S2(=O)=O | ? | .
Cc1noc(C)c1NC(=O)Nc1ccc2c(c1)C(=O)N([C@@H](C)CO)C[C@H](C)[C@@H](CN(C)C)O2 | 21 | 11
CC(C)NC(=O)N(C)C[C@H]1Oc2ccc(NC(=O)Cn3cnnn3)cc2CC(=O)N([C@H](C)CO)C[C@H]1C | 9 | 1
CO[C@@H]1CN(C)C(=O)c2ccc(NC(C)=O)cc2OC[C@@H](C)N(Cc2cc(F)ccc2F)C[C@@H]1C | -15 | -22
CCCN(C)C[C@@H]1Oc2cc(C#CC3CCCC3)ccc2S(=O)(=O)N([C@H](C)CO)C[C@@H]1C | -1 | 3
CO[C@@H]1CN(C)C(=O)c2ccc(NS(=O)(=O)c3cn(C)cn3)cc2OC[C@@H](C)N(CC2CC2)C[C@H]1C | 16 | 15
O=C(O)C[C@@H]1C[C@H]2c3cc(NC(=O)c4ccc5c(c4)OCO5)ccc3O[C@H]2[C@@H](CO)O1 | 9 | 10
CC(C)C#Cc1ccc2c(c1)O[C@H](CN(C)C(=O)c1cccnc1)[C@H](C)CN([C@@H](C)CO)S2(=O)=O | 11 | 5
C[C@H]1CN([C@@H](C)CO)C(=O)Cc2cc(NC(=O)Nc3ccc4c(c3)OCO4)ccc2O[C@@H]1CN(C)S(=O)(=O)c1ccccc1 | 5 | 10
CO[C@H]1CN(C)C(=O)c2cc(NC(=O)Nc3c(C)noc3C)ccc2OC[C@H](C)NC[C@@H]1C | 23 | 7
C[C@@H]1CN([C@H](C)CO)C(=O)Cc2cc(NC(=O)NC3CCCCC3)ccc2O[C@@H]1CN(C)S(=O)(=O)c1cccs1 | -5 | 1
(cont.)
SMILES | Vaccinia inh | Vaccinia inh Venus
C[C@@H]1CN([C@@H](C)CO)C(=O)c2cc(NS(=O)(=O)c3cccs3)ccc2O[C@@H]1CN(C)Cc1ccc(Cl)c(Cl)c1 | -32 | -28
Cc1cc(C(=O)Nc2ccc3c(c2)C(=O)N(C)[C@H]2CC[C@H](CC(=O)NCC(F)(F)F)O[C@@H]2CO3)no1 | 9 | 10
O=C(c1ccccc1)N1CC(=O)N2[C@H](C1)[C@@H](c1ccc(-c3ccccc3)cc1)[C@@H]2CO | -26 | -21
CCC(=O)N1[C@H](CO)[C@@H]2c3ccccc3N(C(=O)NC(C)C)C[C@@H]21 | -2 | -8
CCc1sc(N2[C@@H](C#N)[C@@H](c3ccccc3-c3cccc(C)c3)[C@@H]2CO)nc1C | -2 | -5
COCCNC(=O)[C@@H]1[C@@H](CO)[C@@H]2Cn3c(ccc(C4=CCCCC4)c3=O)[C@H]1N2C(=O)C1CCC1 | -6 | -8
CCCC#Cc1ccc2c(c1)O[C@H](CN(C)Cc1ccccn1)[C@H](C)CN([C@@H](C)CO)S2(=O)=O | ? | .
C[C@@H]1CCCCO[C@@H](CN(C)C(=O)Nc2ccccc2)[C@H](C)CN([C@H](C)CO)C(=O)c2cc(NC(=O)NC3CCCCC3)ccc2O1 | -10 | -13
O=C(C1CCCCC1)N1CC(=O)N2[C@H](CO)[C@H](c3ccc(-c4ccccc4F)cc3)[C@@H]2C1 | -31 | -20
CCC(=O)N1CC2(CN(Cc3cccnc3)C2)c2c(n(C)c3cc(OC)ccc23)[C@H]1CO | -2 | -10
C/C=C/c1ccc([C@H]2[C@H](CO)N[C@@H]2CN(CC)C(=O)c2cccnc2)cc1 | 9 | 22
C[C@@H]1CCCCO[C@@H](CN(C)S(=O)(=O)c2cn(C)cn2)[C@@H](C)CN([C@H](C)CO)C(=O)c2cc(NC(=O)Nc3ccccc3)ccc2O1 | 21 | 16
CCO[C@H]1OC(C(=O)N2CCN(C)CC2)=C[C@@H](c2ccc(Br)cc2)[C@@H]1CCCO | 4 | 10
COCC#Cc1cnc2c(c1)C(=O)N([C@@H](C)CO)C[C@H](C)[C@H](CN(C)C(=O)Nc1ccccc1OC)O2 | 6 | 6
C[C@@H](NC(=O)C[C@@H]1CC[C@@H]2[C@H](COC[C@@H](O)CN2Cc2cc(F)ccc2F)O1)c1ccccc1 | 9 | 6
O=C(Nc1ccc(F)cc1)N1CCCCN2[C@H](CO)[C@@H](c3ccc(C4=CCCCC4)cc3)[C@H]2C1 | ? | .
Cc1ccc(S(=O)(=O)N(C)C[C@H]2Oc3ncc(-c4ccccc4)cc3C(=O)N([C@H](C)CO)C[C@H]2C)cc1 | -17 | -13
COc1ccc(NC(=O)N(C)C[C@@H]2Oc3ccc(NS(=O)(=O)c4ccc(OC)cc4)cc3CC(=O)N([C@@H](C)CO)C[C@H]2C)cc1 | -4 | -1
C[C@H](CO)N1C[C@H](C)[C@@H](CN(C)S(=O)(=O)c2cccs2)Oc2ccc(NC(=O)c3ccncc3)cc2CC1=O | 17 | 12
C[C@H]1CN([C@@H](C)CO)C(=O)c2cc(NC(=O)Cc3cn(C)c4ccccc34)ccc2O[C@H]1CN(C)C(=O)Nc1cccc2ccccc12 | -7 | -4
O=C(C[C@@H]1CC[C@H](NC(=O)Nc2cc(F)ccc2F)[C@H](CO)O1)NCc1ccc2c(c1)OCO2 | -6 | 4
COCC(=O)N1C[C@H](C)[C@H](OC)CN(C)C(=O)c2ccc(NC(=O)c3ccccc3)cc2OC[C@H]1C | -13 | -4
CCCC(=O)Nc1ccc2c(c1)C(=O)N(C)C[C@H](OC)[C@@H](C)CN(C(C)=O)[C@@H](C)CO2 | 10 | 3

Molecules above with a Cl atom (8):
SMILES | Vaccinia inh | Vaccinia inh Venus
O=C(Nc1ccc(Cl)cc1)N1C[C@H]2[C@@H](c3ccccc31)[C@H](CO)N2C(=O)c1ccccn1 | -11 | -13
O=C(N[C@@H]1CC[C@H](CCNS(=O)(=O)c2cccc(Cl)c2)O[C@H]1CO)c1ccccc1 | -11 | -7
C[C@H]1CN([C@@H](C)CO)C(=O)c2cc(NS(=O)(=O)c3ccc(Cl)cc3)ccc2O[C@@H]1CN(C)C | 2 | -1
O=C(NCC[C@@H]1CC[C@@H](NC(=O)c2cccnc2)[C@H](CO)O1)Nc1ccc(Cl)cc1 | -1 | 2
C[C@@H]1CCCCO[C@@H](CN(C)S(=O)(=O)c2ccc(Cl)cc2)[C@@H](C)CN([C@@H](C)CO)C(=O)c2cc(NC(=O)Nc3ccc(F)cc3)ccc2O1 | ? | .
CCNC(=O)C[C@H]1CC[C@H]2[C@@H](COc3ccc(NC(=O)Nc4ccccc4Cl)cc3C(=O)N2C)O1 | 8 | 6
O=C(C[C@H]1CC[C@@H]2[C@H](COC[C@H](O)CN2S(=O)(=O)c2ccccc2Cl)O1)NCc1ccccc1Cl | 10 | 1
C[C@@H]1CN([C@@H](C)CO)C(=O)c2cc(NS(=O)(=O)c3cccs3)ccc2O[C@@H]1CN(C)Cc1ccc(Cl)c(Cl)c1 | -32 | -28
